Source: PubChem BioAssay
CBX7 AlphaScr – inhibitors of human CBX7 binding to H3K27me3 peptide; O95931; AlphaScreen His6-CBX7 / biotin-H3K27me3 peptide binding; active compounds read low; normalised signal (fraction of DMSO) (concentration not given with the values); 66,000 tested, 1.1% active; AID 1224903; in the data active = normalised signal below about 0.5;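 note: 100 nL library stock added to about 20 µL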
Target sequence (O95931 whole entry, looked up): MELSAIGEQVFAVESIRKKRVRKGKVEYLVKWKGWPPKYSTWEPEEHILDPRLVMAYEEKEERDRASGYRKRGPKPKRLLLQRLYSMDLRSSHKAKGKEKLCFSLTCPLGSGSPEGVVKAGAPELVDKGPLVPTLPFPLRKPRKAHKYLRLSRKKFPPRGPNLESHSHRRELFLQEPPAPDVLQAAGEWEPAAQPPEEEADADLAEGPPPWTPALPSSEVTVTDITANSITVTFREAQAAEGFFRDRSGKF
CBX7 AlphaScr z-score – further read-out of CBX7 AlphaScr, marked with its call; z-score; measured here: z-score of CBX7 signal; some inactives read as strong as hits; reference of the scale not given here;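 same signal on another scale; lower means less binding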
Active calls of the source: *; & = joins results of further samples. An excerpt; the hit share may differ from the screen's.

SMILES | CBX7 AlphaScr | CBX7 AlphaScr z-score
Cc1ccc(NC(=O)CS(=O)(=O)Cc2nc(-c3ccccc3C)oc2C)cc1Cl | 0.8 | -0.7
CN(C(=O)CCn1nc(-c2ccc(Cl)cc2)c2ccccc2c1=O)c1ccccc1 | 0.9 | -2.7
COc1ccc(Nc2c(-c3ccc(O)cc3)nc3cnccn23)cc1OC | 0.96 | -1.5
COc1ccc(-c2cc3nc(C)c(CCC(=O)Nc4ccccc4C(N)=O)c(C)n3n2)c(OC)c1 | 1.2 | 2.3
Cc1oc(-c2ccccc2F)nc1CS(=O)(=O)CC(=O)NCc1ccccc1Cl | 1 | 0.91
COc1ccccc1NC(=O)c1cc2c(n(-c3ccc(C)cc3)c1=O)CC(C)(C)CC2=O | 1.1 | 0.45
Cc1cccc(Cc2cnc(NC(=O)COc3cccc(Cl)c3)s2)c1 | 1.2 | 1.3
Cc1oc(-c2cccc(Cl)c2)nc1CN1CCC(C(=O)NC(C)C)CC1 | 1.1 | 1.8
CCOc1ccc2nc(N3CCCC(C(=O)NCCCN4CCOCC4)C3)sc2c1 (centres undefined) | 0.99 | -0.38
Cc1ccc(Nc2nc(-c3ccc(S(=O)(=O)N4CCOCC4)cc3)cs2)cc1Cl | 0.96 | -0.6
Cc1nccn1-c1nc2nonc2nc1Nc1cccc(Br)c1 | 1.1 | 2
CCOc1ccc2nc(N3CCCC(C(=O)NCc4ccccc4OC)C3)sc2c1 (centres undefined) | 1.3 | 1.6

Laid out differently: entries from further up.
compound,CBX7 AlphaScr,CBX7 AlphaScr z-score
COc1ccccc1NC(=O)c1cc2c(n(-c3ccc(C)cc3)c1=O)CC(C)(C)CC2=O,1.1,0.45
Cc1cccc(Cc2cnc(NC(=O)COc3cccc(Cl)c3)s2)c1,1.2,1.3
Cc1oc(-c2cccc(Cl)c2)nc1CN1CCC(C(=O)NC(C)C)CC1,1.1,1.8
CCOc1ccc2nc(N3CCCC(C(=O)NCCCN4CCOCC4)C3)sc2c1 (centres undefined),0.99,-0.38
Cc1ccc(Nc2nc(-c3ccc(S(=O)(=O)N4CCOCC4)cc3)cs2)cc1Cl,0.96,-0.6

(listing goes on)
SMILES | CBX7 AlphaScr | CBX7 AlphaScr z-score
COc1cccc(C2=NOC(C(=O)Nc3ccc(C)cc3)C2)c1OC (centres undefined) | 1 | -0.08
COc1ccc(-n2ccnc2SCC(=O)Nc2cccc(F)c2)cc1 | 0.65 | -0.47
Cc1nc(N2CCC(C)CC2)c2c(C)c(C(=O)N3CCC(C)CC3)sc2n1 | 0.93 | -0.97
Cc1ccc(NC(=O)c2nnn(Cc3ccccc3)c2N)cc1C | 0.79 | -2.1
Cc1ccnc(NC(=O)C2CC(=O)N(c3ccc(F)cc3)C2)c1 (centres undefined) | 1 | 0.55
CC(=O)Nc1nnc(-c2ccccc2SCc2ccccc2)s1 | 0.98 | -0.44
Cc1cccc(C)c1NC(=O)CSc1nnnn1-c1ccc(C(N)=O)cc1 | 1.1 | 0.75
Cc1ccsc1CCNc1ccc2nnc(C)n2n1 | 0.96 | -0.98
Cn1ccnc1C(O)(c1ccccc1)c1ccccc1 | 1.1 | 1.5
COc1cccc(CNc2sc3c(c2C(=O)Nc2ccc(OC)cc2OC)CCCC3)c1 | 0.53 | -9.3
COc1ccc(OC)c(N2CC(c3nc4ccccc4n3Cc3ccccc3)CC2=O)c1 (centres undefined) | 0.96 | -0.28
COc1ccc(-n2ccnc2SCC(=O)Nc2ccccc2C(F)(F)F)cc1 | 0.91 | -1.4
CCOC(=O)c1cnc2c(C(F)(F)F)cccc2c1Nc1ccc(O)cc1 | 0.8 | -10
Cc1ccc(Nc2cc(C(=O)N3CCCCCC3)c3ccccc3n2)cc1C | 0.91 | -1.2
CC1CCN(C(=O)C2CCN(c3nnc(-n4cccc4)s3)CC2)CC1 | 1.1 | 1.3
COc1cccc(NC(=O)N2CCN(c3ccc(C(F)(F)F)cn3)CC2)c1 | 1 | 1.5
CC(CCc1ccccc1)NC(=O)CCCn1c(=O)[nH]c2ccccc2c1=O (centres undefined) | 1.1 | 0.23
O=C(NCc1cccs1)c1ccc2c(c1)N(Cc1ccccc1Cl)C(=O)c1ccccc1S2 | 0.98 | -0.49
O=C([C@H](Cc1ccccc1)N1Cc2ccccc2C1=O)N1CCN(c2ccc(F)cc2)CC1 | 0.89 | -1.9
c1ccc(-c2nc(-c3ccncc3)[nH]c2-c2ccccc2)cc1 | 1.1 | 1
Cc1cc(C(=O)Nc2c(C)nn(Cc3c(Cl)cccc3Cl)c2C)no1 | 1 | 0.78
CC1(C)CC(=O)c2cc(OCC(=O)O)ccc2O1 | 1.2 | 2.3
Cc1ccc(C2CC(=O)C(C)C(c3ccc(C)cc3)N2)cc1 (centres undefined) | 1.1 | 3.2
CCOC(=O)c1cnc2ccc(OCC)cc2c1Nc1ccccc1OC | 1 | 0.022

A few values from above.
Cc1ccc(NC(=O)c2nnn(Cc3ccccc3)c2N)cc1C in CBX7 AlphaScr z-score is listed with -2.1
COc1ccc(-c2cc3nc(C)c(CCC(=O)Nc4ccccc4C(N)=O)c(C)n3n2)c(OC)c1 in CBX7 AlphaScr is listed with 1.2
COc1ccc(-n2ccnc2SCC(=O)Nc2ccccc2C(F)(F)F)cc1 in CBX7 AlphaScr is listed with 0.91
O=C([C@H](Cc1ccccc1)N1Cc2ccccc2C1=O)N1CCN(c2ccc(F)cc2)CC1 in CBX7 AlphaScr is listed with 0.89
Cc1ccsc1CCNc1ccc2nnc(C)n2n1 in CBX7 AlphaScr z-score is listed with -0.98
CCOC(=O)c1cnc2ccc(OCC)cc2c1Nc1ccccc1OC in CBX7 AlphaScr z-score is listed with 0.022
O=C(NCc1cccs1)c1ccc2c(c1)N(Cc1ccccc1Cl)C(=O)c1ccccc1S2 in CBX7 AlphaScr is listed with 0.98

Next records:
SMILES | CBX7 AlphaScr | CBX7 AlphaScr z-score
O=C(c1ccc2c(c1)N(Cc1cccc(Cl)c1)C(=O)CS2)N1CCOCC1 | 1 | -0.16
CCOc1ccc2ccccc2c1/C=C/c1ccc2cccc(OC)c2n1 | 1 | 0.054
O=C(Cn1nc(Cc2cccnc2)c2ccccc2c1=O)N1CCCCC1 | 1 | 0.054
Cc1cc(N2CCCCC2)nc2ccc(NC(=O)CCC(=O)N3CCCC3)cc12 | 0.99 | -0.23
CCC(=O)Oc1ccc(C(=O)Nc2cc(-c3nc4ccccc4[nH]3)ccc2C)cc1 | 0.91 | -2.4
O=C(NCc1cccnc1)C1c2ccccc2C(=O)N1Cc1ccc2c(c1)OCO2 (centres undefined) | 0.96 | -1.1
O=C(Nc1ccccc1C(=O)O)c1cccc(S(=O)(=O)N2CCOCC2)c1 | 1.1 | 0.063
COc1cccc(C(=O)NCCc2cc3cc(C)c(C)cc3[nH]c2=O)c1 | 0.96 | -0.29
CCOC(=O)c1cnc2cc(Cl)c(OC)cc2c1Nc1ccc2c(c1)OCO2 | 0.95 | -1.2
COc1ccc(C(=O)Nc2nnc(-c3ccccc3)o2)cc1OC | 0.61&0.73 | -5.1&-6.4
COc1ccc(OCC(O)Cn2ccnc2C)cc1 (centres undefined) | 1.1 | 1.3
CCC(=O)N1c2ccc(S(=O)(=O)NCc3ccccc3)cc2CC1C (centres undefined) | 1.3 | 1.1
Cc1ccc(S(=O)(=O)N(CC(O)CN2C(=O)NC(C)(C)C2=O)c2cccc3ccccc23)cc1 (centres undefined) | 0.88 | -0.83
O=C1CCc2cc(S(=O)(=O)N3CCCC3C(=O)Nc3cccc(F)c3)ccc2N1 (centres undefined) | 0.94 | -1.1
CC1(C)CC(=O)N(CC(=O)N2CCCCC2)c2ccccc2S1 | 1.1 | 3.6
O=C(Cc1ccccc1Br)N1CCNc2ccccc2C1 | 0.96 | -1.1
COc1ccc(CCNc2nc3ccccc3nc2NS(=O)(=O)c2ccc(Br)cc2)cc1OC | 0.7 | -3
COc1ccc(-c2noc(CCC(=O)NCc3cc(OC)ccc3OC)n2)cc1 | 1 | 0.55
CC1CCN(S(=O)(=O)c2ccc3c(c2)N(CC(=O)NCCCOC(C)C)C(=O)CS3)CC1 | 0.98 | -0.46
Cc1ccccc1NC(=O)C(Cc1ccccc1)NS(=O)(=O)c1cccc2cccnc12 (centres undefined) | 1.2 | 2.1
O=C(CCc1ccccc1)Nc1nc(-c2ccc(F)cc2)cs1 | 1.2 | 2.2
CC1CCCC(C)N1CCCNC(=O)c1csc2c1CCCC2 (centres undefined) | 1 | -0.11

4 entries out of the list above, ordered by their value in CBX7 AlphaScr z-score, low to high.
| structure | CBX7 AlphaScr z-score |
| --- | --- |
| Cc1ccc(S(=O)(=O)N(CC(O)CN2C(=O)NC(C)(C)C2=O)c2cccc3ccccc23)cc1 (centres undefined) | -0.83 |
| CC1CCN(S(=O)(=O)c2ccc3c(c2)N(CC(=O)NCCCOC(C)C)C(=O)CS3)CC1 | -0.46 |
| CC1CCCC(C)N1CCCNC(=O)c1csc2c1CCCC2 (centres undefined) | -0.11 |
| CC1(C)CC(=O)N(CC(=O)N2CCCCC2)c2ccccc2S1 | 3.6 |
